Screening results (PubChem)
HPGD inh = qHTS Assay for Inhibitors of HPGD (15-Hydroxyprostaglandin Dehydrogenase) | purified HPGD, NADH fluorescence kinetic, PGE2 substrate | Potency, µM, for inactives: at the highest dose activity change, negative = inhibition, most hits filed as inhibitors | actives 4.3% (n = 150,000); active = well fitted inhibition curve with a large enough effect (not every such curve was filed as active); inconclusive = small, poorly fitted or top-dose-only effect, or another doubt; inactive = no such curve, though single readings can be large or run the other way;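 note: top concentration of the series not given in the record; plate controls included wells without enzyme; inactives centre near -10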
Target sequence (P15428 whole entry, looked up): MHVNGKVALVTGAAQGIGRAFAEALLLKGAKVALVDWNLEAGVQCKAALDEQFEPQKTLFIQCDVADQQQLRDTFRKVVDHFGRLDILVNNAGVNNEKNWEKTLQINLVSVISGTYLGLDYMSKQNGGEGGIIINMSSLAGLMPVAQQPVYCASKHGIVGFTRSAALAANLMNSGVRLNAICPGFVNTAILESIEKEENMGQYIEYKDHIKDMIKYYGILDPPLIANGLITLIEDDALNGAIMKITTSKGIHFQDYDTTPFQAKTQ
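20 nM HPGD preincubated 15 min at room temperature with compound in 50 mM Tris-HCl pH 8, 0.01% Tween 20. Started with 1 mM NAD+ and 30 uM prostaglandin E2; NADH fluorescence (360/450 nm) read 5 times over 30-s intervals, last minus first.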
* hit, by the source's call; u = inconclusive; & = joins results of further samples; [ ] = dose if it differs, or a comment. % is set by controls: 0 for no effect and ±100 for the full control effect; potency is the fitted concentration of half-maximal effect. Only part of the results is shown; rates above refer to the full screens.

SMILES	HPGD inh
COCCCn1c(-c2ccc(S(=O)(=O)N3CCOCC3)cc2)csc1=Nc1ccccc1	u
N#CCCN/N=C(/Cc1nc2ccccc2[nH]1)c1cccc(Cl)c1	-23.3%
C=CCN(CC=C)C(=S)NCCc1ccc(OC)c(OC)c1	-6.7%
O=C(Oc1c(Cl)cc(Cl)c2cccnc12)c1ccco1	-11.2%
CCCNS(=O)(=O)c1ccc(NC(=O)c2cccnc2)cc1	-8.0%
CCCCc1nc2ccccc2n1Cc1nnc2n1-c1ccccc1SC2	-1.3%
Nc1nnc(Cc2ccc(Cl)c(Cl)c2)s1	-18.8%
Cc1cccc(C(=O)Oc2ccc(/C=N/O)cc2)c1	-10.9%
COc1ccc(-c2nn(-c3ccccc3)cc2/C=N/Nc2ccc3ccccc3n2)cc1OC	u
COc1ccc(CCNC(=O)COc2ccc(S(=O)(=O)N3CCOCC3)cc2)cc1OC	-3.6%

Structures shown so far that contain a halogen, in the order listed:
SMILES	HPGD inh
N#CCCN/N=C(/Cc1nc2ccccc2[nH]1)c1cccc(Cl)c1	-23.3%
O=C(Oc1c(Cl)cc(Cl)c2cccnc12)c1ccco1	-11.2%
Nc1nnc(Cc2ccc(Cl)c(Cl)c2)s1	-18.8%

Continuation.
SMILES	HPGD inh
Cn1nnnc1SCc1ccc(C(=O)Nc2nccs2)cc1	-20.1%
Cc1cccc(Cn2cc(/C=C/[N+](=O)[O-])c3ccccc32)c1	-10.9%
Cc1ccc(S(=O)(=O)NC(C(=O)OCC(=O)NC(=O)c2cccn2C)C(C)C)cc1 (configuration not stated)	-5.3%
COc1ccc(NS(=O)(=O)c2ccc(OC)c(NC(=O)CCC3CCCC3)c2)cc1	-21.8%
CCOc1cccc2c1OC1(C)CC2NC(=O)N1c1cccc(F)c1 (configuration not stated)	-0.2%
O=C(CSc1nnc(-c2cccnc2)n1CCc1ccccc1)NCc1ccccc1	-12.6%
CCc1cc2c(=O)c(-c3cnn(-c4ccccc4)c3)c(C(F)(F)F)oc2c(CN(C)C)c1O	-21.7%
O=[N+]([O-])c1ccc(-c2nc(=S)c3c(o2)CCCC3)cc1	-11.9%
CCCCN(C(=O)CN1C(=O)C2CC=CCC2C1=O)c1c(N)n(CCC)c(=O)[nH]c1=O (configuration not stated)	-10.3%
Cc1cc(C)n2nc(SCC(=O)c3ccc[nH]3)nc2n1	-9.0%
COC(=O)c1cc(Br)c(=O)n(CCc2ccc(F)cc2)c1	3.5%
COc1ccc(NC(=O)C2Cc3ccccc3CN2C(=O)c2ccccc2)cn1 (configuration not stated)	-6.1%
CCOc1ccc(S(=O)(=O)NNC(=S)Nc2ccc(Br)cc2)cc1	-18.2%
O=C(c1ccc(N2CCCC2=O)cc1)N1CCCCCC1	0.224µM*
Cc1ccc(S(=O)(=O)/N=C(/c2ccc(F)cc2)N2CCCCC2)cc1	-9.2%
Cc1ccc(NNC(=S)Nc2ccc(C(C)C)cc2)c(C)c1	u
O=C(O)CCC(=O)NCc1ccc(C(=O)O)cc1	-1.5%
COc1ccc(CCNc2nc(-c3ccco3)cc(C(F)(F)F)n2)cc1OC	-27.1%
OCC(CO)(CO)N=Cc1c(O)ccc2ccccc12	-19.6%
C[C@@H]1C[C@@H]([C@@H](C)CC2CC(=O)NC(=O)C2)C(=O)[C@@H](C)C1	-5.0%
CN(C)c1ccc(C(c2nnnn2CCOC(=O)Nc2ccc(Cl)cc2)N2CCOCC2)cc1 (configuration not stated)	-24.6%
CC(NC(=O)CCCOc1ccc(Cl)cc1)c1ccccc1 (configuration not stated)	-2.1%
Cc1ccc(NC(=O)/C=C/c2ccc([N+](=O)[O-])s2)cc1	-13.9%
Cc1ccc(Sc2ncccc2COC(=O)Nc2c(C)cccc2C)cc1	-28.7%
O=C(NCC1CCCO1)c1c(O)c2ccccc2[nH]c1=O (configuration not stated)	-16.0%
Cc1ccc(C(=O)NC(=S)Nc2ccc(NC(=O)c3cccc(Cl)c3)cc2)cc1	-9.8%
CC(=O)N1CCN(c2nc(C)nc3sc4c(c23)CCC(C)C4)CC1 (configuration not stated)	-21.8%
COc1ccc2c3c(c(=O)oc2c1OCC(=O)O)CCCC3	u
Cc1ccc(N=CC2=C(O)CC(c3cccc(Cl)c3)CC2=O)cc1 (configuration not stated)	56.9%[activator]
COC(=O)N1CCC2(CCN(C(=O)NC(C)C)CC2)CC1	-8.2%
Cc1ccc(N2C(=O)c3ccc(C(=O)NCCN4CCOCC4)cc3C2=O)cc1	-15.3%
COc1ccc(/C=N/NC(=O)c2sccc2OCc2ccc(F)cc2)cc1OC	u
C=C(C)Cn1c(CCCNC(=O)CC)nc2ccccc21	-4.1%
COc1cccc(OC)c1C(=O)Nc1ccc(Cc2ccncc2)cc1	-1.3%
CC(C)NC(=O)c1cccc(Br)c1	-23.1%
COc1ccc(OC)c(NC(=O)c2c(NC(=O)c3ccco3)sc3c2CCC3)c1	-18.2%
Cc1cc(C)nc(NS(=O)(=O)c2ccc(NC(=O)CN3C(=O)S/C(=C\c4ccccc4)C3=O)cc2)n1	u
COc1ccc(-n2c(Cc3cccn3C)nnc2SCC(=O)Nc2cccc(OC)c2)cc1	-20.2%
Cc1ccc(C(=O)Nc2nc3ccccc3s2)s1	u
CCC(CC)C(=O)Nc1ccc(C(=O)c2ccccc2)cc1	-11.7%
COCCN(C(=O)c1csnn1)C(C(=O)NC1CCCCC1)c1cccs1 (configuration not stated)	-5.5%
Cc1ccc(C)c(Cn2c(=O)n(-c3ccc(CC(=O)NCc4ccco4)cc3)c(=O)c3sccc32)c1	-7.6%
C=CCNc1oc(-c2ccc(OCC)cc2)nc1C#N	u
Cc1nn(-c2ccccc2)c2c1C(c1ccccc1)C(C#N)=C(N)O2 (configuration not stated)	31.6µM*
CCc1ccc(NC(=O)Nc2ccc3c(c2)N(C)C(=O)CS3)cc1	-8.8%
C=CCNC(=O)CCCOc1cc(C)ccc1C	14.1µM*
CCCNC(=O)c1ccccc1NC(=O)c1ccccc1N(C)S(=O)(=O)c1ccc(C)cc1	-18.2%
Cn1nccc1C(=O)NCCN1C(=O)OC(C)(C)C1(C)O (configuration not stated)	0.1%
N#C/C(=C(/O)CSc1nnc(Cc2cccs2)n1C1CCCCC1)c1nc2ccccc2[nH]1	-17.8%
COc1ccc(C2CC(=O)c3c(C)nc(N4CCN(c5ccccc5)CC4)nc3C2)cc1 (configuration not stated)	u
Later entries
SMILES	HPGD inh
COc1ccc(NCc2nnc(SCC(=O)c3ccc(C)cc3)o2)cc1	-23.1%
COc1cc(/C=C/C(=O)O)cc(OC)c1OC	u
COc1ccc(OCC(=O)Nc2ncc3c(n2)CC(C)(C)CC3=O)cc1	-5.3%
Cc1ccc2nc(SCC(=O)N3CCN(C(=O)c4ccco4)CC3)[nH]c2c1	-3.2%
CCCc1cc(=O)[nH]c(SCc2cc(=O)oc3c(C)c(C)ccc23)n1	3.55µM*
FC(F)(F)c1cccc(N2CCN(CC3CC=CCC3)CC2)c1 (configuration not stated)	-15.2%
COc1ccccc1CNC(=O)C1CC(c2ccccc2[N+](=O)[O-])=NO1 (configuration not stated)	-15.0%
COC(=O)c1ccc(OC(=O)CCN2c3ccccc3Sc3ccccc32)cc1	-6.4%
CCSc1nnc(NC(=O)COc2cccc3ccccc23)s1	-8.0%
COc1cccc([C@@H]2Oc3ccc(Br)cc3C(=O)[C@H]2OC(=O)NCc2ccc3c(c2)OCO3)c1	-12.1%
Cc1cc(C)c(N)cc1C	-0.9%
O=C(c1ccco1)N1CCN(C(=O)c2cnn3cccnc23)CC1	-14.0%
Cc1ccc(NC(=O)CCn2c(=O)oc3ccccc32)cc1	-14.1%
O=S(=O)(NCc1ccc2c(c1)OCO2)c1cccc2cccnc12	-11.4%
CC1CCc2nn(CC(=O)NCCC3=CCCCC3)cc2C1 (configuration not stated)	-2.7%
CCCCCCCCOc1ccc(C(=O)O)cc1	-11.2%
Cc1cccc(NC(=S)NCCC(c2ccccc2)c2ccccc2)c1	-9.2%
COc1ccc(Br)cc1S(=O)(=O)N1CCOCC1	-6.4%
O=C(COC(=O)c1ccc2c(c1)OCO2)NC1CCS(=O)(=O)C1 (configuration not stated)	-13.3%
c1cn2c(NC3CCCC3)c(-c3ccc(N4CCOCC4)cc3)nc2cn1	-14.3%
CCOc1cc(NC(=S)Nc2cccc(OC)c2)c(OCC)cc1NC(=O)c1ccc(C)cc1	-18.0%
CC(=O)Nc1ccc(S(=O)(=O)NC2(C(F)(F)F)NC(=O)N(c3ccc(Cl)cc3)C2=O)cc1 (configuration not stated)	-5.1%
Cn1c(-c2ccc3c(c2)OCO3)cnc1NCc1cccc(Cl)c1	u
Cc1cc(C=C2C(=O)c3ccccc3C2=O)c(C)n1-c1ccc(Cl)cc1	-10.3%
CC(C)c1ccc(N2C(=O)CC(Sc3ncn[nH]3)C2=O)cc1 (configuration not stated)	15.8µM*
COc1ccc(-c2cc(CCCC(=O)NCCc3cc(OC)ccc3OC)no2)cc1	-23.4%
Cc1ccc(NC2=NC(c3ccccc3)n3c(nc(C)cc3=O)N2)c(C)c1 (configuration not stated)	-7.4%
CCOC(=O)N1CCN(C(=O)CCc2c(C)nc3nc(C)nn3c2C)CC1	-3.7%
CCN=C1S/C(=C\c2ccc(N3CCOCC3)cc2C)C(=O)N1CC	-9.0%
Cc1c(NC(=O)c2ccc(F)cc2)c(=O)n(-c2ccccc2)n1C	-5.8%
CCOc1ccccc1N(C)C(=O)C1CCN(S(=O)(=O)c2cccc3nonc23)CC1	0.4%
Cc1ccc(C(=O)Nc2sc(C)c(-c3ccccc3)c2C(N)=O)cc1[N+](=O)[O-]	25.1µM*
CSCCC(NC(=O)c1ccc(Cl)cc1)C(=O)OCC(=O)Nc1cc(Cl)ccc1C (configuration not stated)	-4.0%
O=C(Cn1c(=O)oc2cc(S(=O)(=O)N3CCCC3)ccc21)N1CCN(C2CCCCC2)CC1	-3.0%
CC1=C(c2ccc(C)cc2)S(=O)(=O)N(CC(=O)O)C1=O	-9.6%
Nc1n[nH]c2ccccc12	-7.5%
Cc1ccc(N(CCC#N)C(=O)CSc2ccc3c(c2)OCCO3)cc1	-11.2%
CCCC(=O)c1ccc(-c2ccccc2)cc1	7.08µM*
Cc1sc2ncnc(SCC(=O)c3cccs3)c2c1C	-23.6%
O=C(COc1cccc2c1CCN(Cc1ccccc1)C2=O)NCc1ccco1	-17.4%
COc1cccc2cc(/C(C)=N/Nc3nc(-c4cc(C)ccc4C)cs3)c(=O)oc12	31.6µM*
Cc1ccc(NC(=O)CC2C(=O)OCC3CCCCN32)cc1Cl (configuration not stated)	-4.4%
O=C(Nc1ccc2c(c1)OCO2)C1CCCCN1S(=O)(=O)c1ccccc1 (configuration not stated)	-7.0%
COc1nc2ccccc2c(=O)n1OCC(C)C	-18.1%
COc1ccc(-c2coc3cc(O)ccc3c2=O)cc1OC	-22.5%
Cn1c(SCC(=O)Nc2nccs2)nnc1-c1ccco1	-0.5%
Cc1ccc(C(=O)N/C(=C\c2ccc(-c3cc(Cl)ccc3Cl)o2)C(=O)NCc2cccnc2)cc1	-9.7%
C=CCSC1=N/C(=C\c2cc(OCC)c(OC(C)=O)c([N+](=O)[O-])c2)C(=O)S1	6.31µM*
Cc1[nH]c2ccccc2c1CN1CCc2ccccc2C1	3.7%
CC(=O)Cc1nsc(NC(=O)c2ccco2)n1	-2.7%

3 compounds out of the list above, ordered by the value under HPGD inh, low to high.
SMILES	HPGD inh
C=CCNC(=O)CCCOc1cc(C)ccc1C	14.1µM*
CC(C)c1ccc(N2C(=O)CC(Sc3ncn[nH]3)C2=O)cc1 (configuration not stated)	15.8µM*
Cc1nn(-c2ccccc2)c2c1C(c1ccccc1)C(C#N)=C(N)O2 (configuration not stated)	31.6µM*

Remaining list, next part:
SMILES	HPGD inh
CCS(=O)(=O)N1CCN(C2CCC(C)CC2)CC1 (configuration not stated)	-9.0%
CS(=O)(=O)N(CC(=O)NC1CCCCC1)c1cccc(Cl)c1	-11.9%
O=C(CN1C(=O)c2ccccc2C1=O)Nc1cccc2cccnc12	-5.7%
CCOC(=O)c1cnc2ccc(C(=O)OC)cc2c1NCCc1ccc(OC)c(OC)c1	-15.9%
O=C(Nc1ccc(Cl)cc1)N1CCCN(Cc2ccc(F)cc2)C1	25.1µM*
O=C(CN1C(=O)CCC1=O)Nc1nc(-c2cccs2)cs1	-2.0%
CN(C)C(C)(C)C#CCC(c1ccccc1)c1ccccc1	-18.2%
O=C(O)c1cc(-c2ccco2)nc2ccccc12	u
CS(=O)(=O)N1CCC2(CCN(c3ccccc3)CC2)CC1	-3.1%
CC(NCCC(c1ccccc1)c1ccccc1)c1ccccc1 (configuration not stated)	-8.6%&-6.3%
CCn1c(SCc2nc3ccccc3c(=O)[nH]2)nnc1-c1ccncc1	-6.1%
O=C(O)c1ccc(Cl)c(S(=O)(=O)Nc2ccccc2Cl)c1	-7.1%
Cc1cccc(N2CCN(C(=O)C3CCN(c4nnc(-n5cccc5)s4)CC3)CC2C)c1 (configuration not stated)	-2.5%
Cc1ccc(S(=O)(=O)N2CCCC(C(=O)NCc3cccnc3)C2)cc1Cl (configuration not stated)	-4.4%
COc1cc(/C=C(\NC(C)=O)C(=O)NC(C)(C)C)ccc1OC(C)=O	-16.0%

Reprinted at random: six entries already listed.
SMILES	HPGD inh
C=CCNc1oc(-c2ccc(OCC)cc2)nc1C#N	u
CN(C)c1ccc(C(c2nnnn2CCOC(=O)Nc2ccc(Cl)cc2)N2CCOCC2)cc1 (configuration not stated)	-24.6%
Cc1ccc(NC(=O)/C=C/c2ccc([N+](=O)[O-])s2)cc1	-13.9%
CC(=O)Nc1ccc(S(=O)(=O)NC2(C(F)(F)F)NC(=O)N(c3ccc(Cl)cc3)C2=O)cc1 (configuration not stated)	-5.1%
CC1CCc2nn(CC(=O)NCCC3=CCCCC3)cc2C1 (configuration not stated)	-2.7%
Cc1ccc(N=CC2=C(O)CC(c3cccc(Cl)c3)CC2=O)cc1 (configuration not stated)	56.9%[activator]
